# Source: PubChem BioAssay
# MT1-MMP act inh: blocks activation of human MT1-MMP. HT1080 RFP-PRO-GFP cells, GFP/RFP ratio fluorescence, overnight; percent of plate control window, DMSO zero. GFP/RFP ratio change, % at 20 µM. 360,000 tested, 0.061% active;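 active means GFP/RFP ratio change of at least 30% with cell ATP level not reduced by more than half and red fluorescence within 50% of control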; further: strong numbers were not always called active
#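 Assay system: HT1080 cells carrying an RFP-PRO-GFP reporter | Dosing: Single dose of 20 µM compound, 1% DMSO final | Incubation: Cells overnight before dosing, compound overnight, 37 °C, 5% CO2 | Evaluation: GFP/RFP fluorescence ratio | Control set: DMSO and RFP-L50D-GFP cell wells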
# Env fusion inh: inhibitors of HIV Env-mediated cell fusion | HeLa-JRFL Env/CEM21 cell fusion, luciferase | inhibition, % at 12.3 µM | 360,000 tested, 1.1% active;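 active means mean replicate inhibition score of at least 50 and every replicate individually at or above 50; inconclusive means only one of the two criteria met; inactive means mean below 50 and not all replicates reaching 50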;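 further: 0% = plate neutral controls and 100% = maraviroc near 300 nM; one replicate is shown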
# CSC inhib: cancer stem cell inhibition; 300,000 tested, 1.1% active; inhibition, % at 7.5 µM; cancer stem cell-like cells viability, luminescence; AID 2717;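 active means mean at 75% or more and at least half the replicates too; inconclusive means mean and replicates disagree; tested in HMLE shEcad cells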;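 further: 0% = median of negative and 100% = median of positive control wells; the first replicate is given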
# PABP FP inh: blocks human PABP binding to poly(A) RNA; P11940; fluorescence polarization; inhibition, % at 35 µM; 290,000 tested, 1% active; AID 2014;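 active means 50% or more with normal probe brightness, or confirmed in later tests; inconclusive means above 50% with abnormal brightness, or retests that disagree; inactive means below 50% or failed in later tests; about a fifth of its hits are not listed in these tables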;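 further: calls also rest on retests at 20 µM and on dose response follow-up; controls were probe without protein and protein plus probe with vehicle; some compounds called inactive have numbers as strong as hits; many hits fall short of the cut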
# Target sequence (P11940 whole entry, looked up): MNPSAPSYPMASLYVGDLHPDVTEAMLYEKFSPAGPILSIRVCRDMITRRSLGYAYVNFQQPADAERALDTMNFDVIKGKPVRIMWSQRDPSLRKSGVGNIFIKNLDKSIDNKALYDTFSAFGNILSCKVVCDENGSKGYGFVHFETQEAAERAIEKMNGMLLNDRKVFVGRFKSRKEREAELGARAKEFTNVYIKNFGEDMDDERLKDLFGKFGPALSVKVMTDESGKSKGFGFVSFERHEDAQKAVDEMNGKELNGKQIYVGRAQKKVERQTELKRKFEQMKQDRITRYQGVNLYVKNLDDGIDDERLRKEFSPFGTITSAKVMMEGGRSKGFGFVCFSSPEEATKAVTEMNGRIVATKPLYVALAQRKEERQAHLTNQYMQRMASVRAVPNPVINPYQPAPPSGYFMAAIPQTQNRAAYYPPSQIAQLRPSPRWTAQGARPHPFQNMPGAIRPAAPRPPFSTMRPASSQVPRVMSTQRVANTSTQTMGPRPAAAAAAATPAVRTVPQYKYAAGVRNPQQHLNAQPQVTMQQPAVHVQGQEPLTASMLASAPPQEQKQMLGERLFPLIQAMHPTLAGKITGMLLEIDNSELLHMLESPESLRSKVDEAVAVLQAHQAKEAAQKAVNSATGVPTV
# eIF4H FP inh: inhibitors of RNA binding by human eIF4H; Q15056; eIF4H fluorescence polarization binding assay; inhibition, % at 35 µM; 290,000 tested, 0.94% active;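 active means 50% or more with normal probe brightness, or confirmed in later tests; inconclusive means above 50% with abnormal brightness, or retests that disagree; inactive means below 50% or failed in later tests; about a fifth of its hits are not listed in these tables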;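 further: calls also rest on retests at 20 µM and on dose response follow-up; 0% = protein and probe with vehicle and 100% = probe without protein; strong numbers were not always called active; many hits fall short of the cut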
# Rce1 inhib: blocks yeast Ras-converting enzyme; 290,000 tested, 0.27% active; AID 2563; Q03530; yeast membranes, quenched prenylated peptide cleavage fluorescence; calls only;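 active means fall in fluorescence gain of 50% or more versus controls, with final raw signal at or below 3038400; inconclusive means same 50% fall but final raw signal above 3038400; inactive means fall in fluorescence gain under 50%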;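 further: plate controls were neutral control wells for no effect and wells lacking membranes for full effect; tested at 10 µM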
# Yeast UUG start: modulators of start codon recognition fidelity in yeast; S. cerevisiae UUG-firefly luciferase reporter, luminescence/redox ratio; activity score, % at 18.7 µM; 350,000 tested, 0.13% active;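 active means replicate mean at a twofold rise or more, about +100% in these data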;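 further: firefly luciferase made from a UUG start codon reports start codon fidelity; reporter light over untreated wells divided by growth signal over untreated wells; some hits fall short of that in this replicate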
# MT1-MMP act inh RFP: also measured in MT1-MMP act inh; calls as there; RFP signal change, %; measured here: RFP expression control read;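 0 = vehicle wells; hits needed this value within 50% of zero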
# Numbers without * were called inactive; i = inactive; ? = inconclusive; . = no result given.
# A first look, 18 compounds:
SMILES,MT1-MMP act inh,MT1-MMP act inh RFP,Env fusion inh,CSC inhib,PABP FP inh,eIF4H FP inh,Rce1 inhib,Yeast UUG start
N=C(N)c1ccc(N)cc1,0,-5,-6,11,.,.,.,-42
O=[N+]([O-])c1ccc(N=Nc2ccc(O)cc2O)cc1,1,-24,7,83*,-5,28,i,-3
CC(=O)N/N=C/c1ccccc1OCCOc1cccc(C)c1,-4,-9,1,16,5,-4,i,-10
CCC(=O)NNc1ncnc2c1cnn2C,2,3,3,-11,-3,4,i,.
O=C(O)c1ccc(N2C(=O)C3ON(c4ccccc4)C(c4ccccc4F)C3C2=O)cc1 (stereo unspecified),0,3,.,1,1,-13,i,11
CCCCC(CCC(=O)Nc1ccc(C(=O)OC)cc1)C(=O)O (stereo unspecified),0,3,.,6,2,0,i,-15
Cc1cccc(N2C(N)=NC(N)=NC23CCCCC3)c1,.,.,-14,-10,7,-6,i,-1
O=C(Cn1nnc(-c2ccncc2)n1)NCCc1ccccc1,-10,-2,.,-15,10,6,i,-13
S=c1[nH]nc(C2CCCCC2)n1/N=C/c1cccs1,-3,-2,18,4,3,-11,i,-7
O=C(COC(=O)c1ccccc1O)Nc1cc(S(=O)(=O)N2CCCCCC2)ccc1Cl,0,-9,6,-7,.,.,.,9
C=CCNC(=O)c1onc(CSc2ccccc2C)c1C(=O)O,1,0,-22,-3,-5,-13,i,-11
Cc1ccc(C(=O)Nc2nc(C)c(C(=O)N(C)C)s2)o1,-1,0,-12,1,8,-8,i,-9
O=S1(=O)C[C@@H]2N=C(N/N=C/c3ccccc3)S[C@@H]2C1,-3,2,-7,-5,1,-1,i,.
CCCCNC(=S)NNC(=O)c1nn(C)c(C)c1Cl,0,1,-85,-7,6,-3,i,.
COc1cccc(/C=C2\SC(=S)N(CCCC(=O)N3CCOCC3)C2=O)c1,2,-2,2,.,.,.,.,-21
Cc1ccc(N2C(=O)CN(Cc3cccs3)C2=S)cc1C,-1,-3,2,-8,36,-5,i,-3
CC1CCCCN1C(=O)Nc1cccc(C(F)(F)F)c1 (stereo unspecified),2,4,-7,-9,0,8,.,.
CCN(CC)CC(=O)NN(Cc1ccccc1)c1ccccc1,-3,4,9,-13,14,9,i,.

# The list itself (from the top)
SMILES,MT1-MMP act inh,MT1-MMP act inh RFP,Env fusion inh,CSC inhib,PABP FP inh,eIF4H FP inh,Rce1 inhib,Yeast UUG start
N=C(N)c1ccc(N)cc1,0,-5,-6,11,.,.,.,-42
O=[N+]([O-])c1ccc(N=Nc2ccc(O)cc2O)cc1,1,-24,7,83*,-5,28,i,-3
CC(=O)N/N=C/c1ccccc1OCCOc1cccc(C)c1,-4,-9,1,16,5,-4,i,-10
CCC(=O)NNc1ncnc2c1cnn2C,2,3,3,-11,-3,4,i,.
O=C(O)c1ccc(N2C(=O)C3ON(c4ccccc4)C(c4ccccc4F)C3C2=O)cc1 (stereo unspecified),0,3,.,1,1,-13,i,11
CCCCC(CCC(=O)Nc1ccc(C(=O)OC)cc1)C(=O)O (stereo unspecified),0,3,.,6,2,0,i,-15
Cc1cccc(N2C(N)=NC(N)=NC23CCCCC3)c1,.,.,-14,-10,7,-6,i,-1
O=C(Cn1nnc(-c2ccncc2)n1)NCCc1ccccc1,-10,-2,.,-15,10,6,i,-13
S=c1[nH]nc(C2CCCCC2)n1/N=C/c1cccs1,-3,-2,18,4,3,-11,i,-7
O=C(COC(=O)c1ccccc1O)Nc1cc(S(=O)(=O)N2CCCCCC2)ccc1Cl,0,-9,6,-7,.,.,.,9
C=CCNC(=O)c1onc(CSc2ccccc2C)c1C(=O)O,1,0,-22,-3,-5,-13,i,-11
Cc1ccc(C(=O)Nc2nc(C)c(C(=O)N(C)C)s2)o1,-1,0,-12,1,8,-8,i,-9
O=S1(=O)C[C@@H]2N=C(N/N=C/c3ccccc3)S[C@@H]2C1,-3,2,-7,-5,1,-1,i,.
CCCCNC(=S)NNC(=O)c1nn(C)c(C)c1Cl,0,1,-85,-7,6,-3,i,.
COc1cccc(/C=C2\SC(=S)N(CCCC(=O)N3CCOCC3)C2=O)c1,2,-2,2,.,.,.,.,-21
Cc1ccc(N2C(=O)CN(Cc3cccs3)C2=S)cc1C,-1,-3,2,-8,36,-5,i,-3
CC1CCCCN1C(=O)Nc1cccc(C(F)(F)F)c1 (stereo unspecified),2,4,-7,-9,0,8,.,.
CCN(CC)CC(=O)NN(Cc1ccccc1)c1ccccc1,-3,4,9,-13,14,9,i,.
O=C(O)Cn1cnc2ccccc2c1=O,0,-3,.,-8,8,-8,i,-5
Cc1ccc(NC(=O)CSCC(=O)NC2CCCCC2)cc1,1,3,.,-5,2,-1,i,.
CCn1nc(C)c(NC(=O)/C=C/c2ccc(OC)c(COc3ccc(Cl)cc3Br)c2)c1C,5,3,-35,35,0,0,i,-11
Cc1cc(SCc2ccccc2Cl)nc(=O)[nH]1,-5,5,3,-26,-8,-1,i,8
COc1ccc2[nH]c(C)c(CCN(Cc3cccs3)C(=S)Nc3ccc(F)cc3)c2c1,-29,-4,.,3,-14,?,i,-19
c1ccc(Oc2nc(Oc3ccccc3)nc(N3CCOCC3)n2)cc1,-1,-3,.,28,6,-3,i,-31
O=C(Nc1nccs1)C1CCCN1S(=O)(=O)c1cccc2cccnc12 (stereo unspecified),0,4,1,-8,10,4,i,-1
COc1ccc(OCc2cc(C(=O)N3CCN(CC(=O)N(C)C)CC3)no2)c(Cl)c1,0,2,-1,16,8,-2,i,-15
Cc1ccc(-c2n[nH]c3c2C(c2cccc(O)c2)N(c2ccc(C(=O)O)cc2)C3=O)cc1 (stereo unspecified),1,-1,11,-6,-1,7,i,.
COc1ccc(Cc2nc3ccc(C(=O)N(C)CCCN4CCOCC4)cc3o2)cc1,2,-3,7,3,-6,-5,i,0
COc1ccccc1NC(=O)Cn1cnc2c(oc3ccccc32)c1=O,2,4,-13,-4,5,-4,i,-11
O=C(NCCN1CCN(c2ccccc2)CC1)c1ccccc1F,7,5,-6,5,2,-2,i,-15
CC(C)CC(=O)NC1(C(F)(F)F)C(=O)N(CC(C)C)C2=C1C(=O)CC(C)(C)C2 (stereo unspecified),-1,1,5,.,3,-6,i,-2
CC(=O)Nc1ccc(NC(=O)C2C3C=CC(C3)C2C(=O)O)cc1 (stereo unspecified),0,1,0,3,-2,12,i,3
Cc1ccc2c(c1)nnn2C1CCN(CC(=O)c2ccc(Cl)cc2)CC1,-9,-5,-73,-8,20,6,i,-15
CN1CCN(C2CCCCC2NS(=O)(=O)c2ccc(Cl)cc2)CC1 (stereo unspecified),-14,-3,.,-8,-1,11,i,1
COc1ccc(N2CCN(C(=O)c3ccc(N4C(=O)NC5CC4(C)Oc4ccccc45)cc3)CC2)cc1 (stereo unspecified),-2,-6,.,-10,-3,-6,i,11
Cc1cc2ccccn2c1C(=O)c1ccc([N+](=O)[O-])cc1[N+](=O)[O-],4,1,-39,-2,8,13,i,-41
CSc1ccccc1NC(=O)CN(C)C(=O)/C=C/c1ccccc1,2,-2,3,.,.,.,.,-6
COCc1ccc(CN2CCCC(CO)(Cc3ccccc3)C2)o1 (stereo unspecified),0,-1,3,11,-9,-3,i,-13
CC1=C(C(=O)N2CCCCC2)C(c2cccs2)NC(=O)N1 (stereo unspecified),3,5,-1,-10,15,-5,i,-9
COC(=O)CSc1nnc2cc(C)c3ccccc3n12,3,4,7,.,6,1,i,-18

# Arranged by the number under Yeast UUG start (low to high): 3 of the compounds above.
Structure	Yeast UUG start
COCc1ccc(CN2CCCC(CO)(Cc3ccccc3)C2)o1 (stereo unspecified)	-13
CSc1ccccc1NC(=O)CN(C)C(=O)/C=C/c1ccccc1	-6
COc1ccc(N2CCN(C(=O)c3ccc(N4C(=O)NC5CC4(C)Oc4ccccc45)cc3)CC2)cc1 (stereo unspecified)	11

# (further entries)
SMILES,MT1-MMP act inh,MT1-MMP act inh RFP,Env fusion inh,CSC inhib,PABP FP inh,eIF4H FP inh,Rce1 inhib,Yeast UUG start
CCc1ccccc1Nc1nc(-c2cccnc2)cs1,.,.,-54,13,3,0,i,-3
O=C(NCc1cccnc1)c1cc(C2CCCN(S(=O)(=O)c3cccc4cccnc34)C2)on1 (stereo unspecified),0,-7,-11,.,.,.,.,-10
CCOCCCNC(=O)C(Cc1ccccc1)NC(=O)c1ccco1 (stereo unspecified),0,11,-27,-6,-9,-8,i,-22
CC1(Cc2ccccc2Cl)C(=O)Nc2c(Cl)cccc21 (stereo unspecified),7,-2,4,.,.,.,.,1
CCOc1ccc(NC(=O)C2CCC(CNc3c(N4CCOCC4)c(=O)c3=O)CC2)cc1 (stereo unspecified),2,0,5,-4,-2,-8,i,-11
O=C(NC1CC1)C1CCN(S(=O)(=O)c2ccc(Cl)c([N+](=O)[O-])c2)CC1,-5,-7,28,64,.,.,.,-10
O=C(CSc1nc2ccccc2c(=O)n1-c1ccc(F)cc1F)NC1CCS(=O)(=O)C1 (stereo unspecified),1,3,-51,.,.,.,.,8
COC(=O)Cn1cc(C(=O)C2CC2)c2ccccc21,3,10,-66,1,0,3,.,-17
COc1ccccc1-c1nnc(SCC(=O)c2c(N)n(C3CC3)c(=O)[nH]c2=O)n1C,4,2,11,-8,.,.,.,-7
CCSc1nc2sc3c(c2c(=O)n1-c1ccc(OC)cc1)CCN(C)C3,4,0,4,10,4,-10,i,-5
COC(=O)c1ccc2c(c1)C(=O)N(C1CCCCC1)C2=O,-2,0,.,-9,-3,-4,i,-17
CCC(=O)OC1CC(C)N(C(=O)c2ccccc2)c2ccc(C)cc21 (stereo unspecified),-3,-3,-126,2,-8,-4,i,-5
CC(C)(C)c1ccc(C(=O)N2CCN(c3ccc(N4CCOCC4)nn3)CC2)cc1,2,-5,-3,2,.,.,i,8
CCOC(=O)c1c(C)[nH]c(C)c1C(=O)COC(=O)/C=C/c1ccc(Cl)cc1,2,4,.,11,-8,-2,i,.
Cc1ccc(-c2cc3nc(-c4ccccc4)cc(N4CCOCC4)n3n2)cc1,5,0,.,.,-9,-2,i,-7
O=C1NC(=S)NC1Cc1ccc(O)cc1 (stereo unspecified),1,1,1,.,.,.,.,-13
C=CCNc1ncnc2ccccc12,-2,-6,.,.,2,-3,i,-5
CC(C)c1ccc(C2/C(=C(/O)c3ccc(F)cc3)C(=O)C(=O)N2CCCN2CCOCC2)cc1 (stereo unspecified),0,-1,-18,1,-14,-9,i,-7
